# Mtb growth: Mycobacterium tuberculosis H37Rv growth inhibition, cell based, confirmatory dose response (AID 1949). M. tuberculosis H37Rv growth inhibition. most inactive calls were filed without a number and no value below 0 was filed. inhibition, % at 10 µg/mL, or IC50 in µg/mL where a hit was titrated. 100,000 compounds, 1.6% hits;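 active means confirmed in a dose series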;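 further: bacteria grown 7 days with compound before Alamar blue readout; 0% = untreated bacteria and 100% = reference antibiotic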
# Numbers without * were called inactive; i = inactive. This is a subset; the hit share may differ from the screen's.
SMILES,Mtb growth
COc1cccc(NC(=O)c2cnn3c(C(F)F)cc(-c4ccccc4)nc23)c1,i
Cc1cc(C)cc(N(CC(=O)NCCSCc2ccc(Cl)cc2)S(C)(=O)=O)c1,i
CCOC(=O)c1c(N)n(-c2ccc(C)c(C)c2)c2nc3ccccc3nc12,i
CNCCCOc1cccc(OC(C)C)c1,i
O=C(CSc1nc2sc3c(c2c(=O)[nH]1)CCCC3)Nc1ccc(Cl)cc1,i
CN(c1ccc(C(=O)Nc2ccc(Br)c(Cl)c2)cc1)S(C)(=O)=O,i
O=C(O)c1ccc(CNc2ccccc2C(=O)O)cc1,i
COc1cccc(Oc2ncnc3scc(-c4ccc(Cl)cc4)c23)c1,25.7%
O=C(Nc1ccccc1C(=O)N1CCCC1)c1cccc(I)c1,i
COc1ccc(Br)cc1C1C(C(=O)N2CCOCC2)=C(C)NC2=C1C(=O)CC(C)(C)C2 (stereo not given),i
Cc1c(-c2ccccc2)nc2ccccc2c1C(=O)Nc1ccc2c(c1)OCCO2,12.9%
CCOc1cc(CO)cc(Cl)c1OCc1ccccc1Cl,i
COc1ccc(C(C)C)cc1S(=O)(=O)N1CCN(c2ccc(F)cc2)CC1,i
CN(C)C(=O)CSc1nnc(-c2ccco2)o1,i
COC(=O)c1cc(-c2ccccc2)sc1NC(=S)NCCn1cc(Br)cn1,1.2%
COc1ccc(C(=O)Oc2ccc3ccccc3c2C=O)cc1OC,i
Cc1ccc(CNC(=O)c2ccc(C)cc2Cl)cc1,i
CCCC(=O)n1nc(-c2ccc(Cl)cc2)nc1SC,i
CCSc1ncnc2scc(-c3ccccc3)c12,i
CCN(CC)c1ccc(NC(=O)C2CCCO2)cc1 (stereo not given),i
C=CCn1c(CNC(=O)c2ccc(F)cc2)nnc1SCc1ccc(Cl)c(Cl)c1,15.4%
COC(=O)CCCC(=O)Nc1ccc(C)c(Cl)c1,20.1%
COc1ccc(Nc2ncnc3ccc(Br)cc23)cc1OC,i
CCSc1nnc(NC(=O)C2C3CCC(C3)C2C(=O)O)s1 (stereo not given),i
CCOC(CC)c1ccc2c(c1)OCCO2 (stereo not given),i

# In a second layout: results already given.
COc1ccc(Nc2ncnc3ccc(Br)cc23)cc1OC
  Mtb growth: i
COc1ccc(C(=O)Oc2ccc3ccccc3c2C=O)cc1OC
  Mtb growth: i
CN(C)C(=O)CSc1nnc(-c2ccco2)o1
  Mtb growth: i
Cc1c(-c2ccccc2)nc2ccccc2c1C(=O)Nc1ccc2c(c1)OCCO2
  Mtb growth: 12.9%

# Further entries
SMILES,Mtb growth
CCc1cccc(CC)c1NC(=O)CSc1nnc(-c2ccc(NC(C)=O)cc2)n1C,i
COc1ccc(Cl)cc1Nc1nc(N2CCCC2)nc(N2CCCC2)n1,i
COc1cc(OC)cc(C(=O)N2CCC(C(=O)Nc3ccc(OCc4ccccc4)cc3)CC2)c1,i
CCCC(NC(=O)c1ccco1)C(=O)O (stereo not given),i
CCN(CC)CCN1C(=O)C(O)=C(C(=O)/C=C/c2ccccc2)C1c1ccc([N+](=O)[O-])cc1 (stereo not given),i
COCCNC(=S)Nc1ccc2nsnc2c1,i
Cc1cc(Br)cc(C)c1OCCN(C)C,i
CN(C)c1ccc(CNCCC(Cc2ccccc2)c2ccco2)cc1 (stereo not given),8.5%
CCOc1ccc(C(=S)N2CC(C)OC(C)C2)cc1 (stereo not given),0.4%
O=c1c2ccccc2[nH]c(=S)n1/N=C/c1cn(-c2ccccc2)nc1-c1ccc(Cl)cc1,2.0%
Cc1cccc(OCC(=O)NC2CCS(=O)(=O)C2)c1C (stereo not given),i
Cc1cc(Nc2ccc(N3CCOCC3)cc2)c2cccc(C)c2n1,i
Cc1c(Cl)cccc1NC(=O)CSc1nnc(N)s1,i
Cc1ccc(C(=O)Nc2ccccc2C(N)=O)o1,i
C=CCNC(=O)C1CC(=O)N(c2ccc(OCC(=O)N3CCOCC3)cc2)C1 (stereo not given),2.9%
COCCCNC(=O)C1CCN(S(=O)(=O)c2cc(Cl)ccc2Cl)CC1,i
O=C(Nc1ccc2oc(-c3cncc(Br)c3)nc2c1)c1cccs1,i
CCOC(=O)CSCC(=O)Nc1cc(C)ccc1C,i
CC(C)C(C(=O)Nc1ccc(Cl)cc1Cl)N1C(=O)c2ccccc2C1=O (stereo not given),i
COc1cc(NC(=O)c2ccco2)c(C(=O)c2ccccc2Cl)cc1OC,i
Cc1[nH]c2c(C)cccc2c(=O)c1CN1CCCCCC1,0.3%
O=C(NN1C(=O)C2CCCCC2C1=O)c1cccnc1 (stereo not given),i
O=C(Oc1ccc(Cl)cc1C(=S)N1CCOCC1)c1cc(Cl)ccc1Cl,i
O=C(CN(c1cccc(Cl)c1Cl)S(=O)(=O)c1ccccc1)Nc1ccccc1F,8.7%
O=c1oc2ccccc2cc1-c1csc(NCc2ccco2)n1,i
# The listing continues:
SMILES,Mtb growth
Cc1ccccc1Cn1ccc(NC(=O)c2cnn3c2NC(c2ccccc2)CC3C(F)(F)F)n1 (stereo not given),8.6%
COCCNC(=S)NNC(=O)c1ccccc1,i
CC1CN(c2cc(N)c([N+](=O)[O-])cc2F)CC(C)N1 (stereo not given),i
N#CCc1ccc(NC(=O)C2(c3ccccc3)CCCC2)cc1,i
C/C(N)=C(/C#N)C(NC(=O)c1ccc(Cl)cc1Cl)(C(F)(F)F)C(F)(F)F,3.7%
CCOc1ccc(NC(=O)CC2NCCNC2=O)cc1 (stereo not given),i
O=C(CSc1ccccc1)N1CCc2ccccc21,1.8%
CC(=O)Nc1ccn(Cc2c(F)cccc2Cl)n1,0.7%
Cc1cc(OCCCNCCO)ccc1C(C)C,i
C=CCc1cccc(CNc2nc3ccccc3n2CCN2CCOCC2)c1O,1.6%
O=C(Nc1ccc(Br)cc1)c1cccc(S(=O)(=O)Nc2ccc(Cl)cn2)c1,i
COc1ccc(S(=O)(=O)N(C)CC(=O)NCc2ccccc2Cl)cc1C,i
COc1ccc(C(=O)NCCc2c[nH]c3ccccc23)cc1[N+](=O)[O-],i
O=C(O)CCCC(=O)Nc1ccc(C(=O)N2CCCCC2)c(Cl)c1,i
CCN(CC)c1ccc(NC(=O)c2ccc(OC)cc2)cc1C,i
O=C(CSCc1ccc(Br)cc1)NCc1ccco1,0.9%
COc1cc(NC(=S)N2CCC(C(N)=O)CC2)cc(OC)c1,i
Cc1ccc(-c2nnc(SCC(=O)Nc3ccc(Cl)cc3Cl)o2)cc1,i
Nc1ccc(Cl)cc1C(=O)c1ccccc1,i
CCOc1ccc(NC(=O)CN(Cc2cccc(C)c2)S(=O)(=O)c2ccc(Cl)cc2)cc1,i
Cc1cc(C)n2nc(SCC(=O)c3cccs3)nc2n1,i
CC(=O)Nc1ccc(S(=O)(=O)N2CCc3ccccc32)cc1,i
COCc1cc(C)nc(SCC(=O)O)c1C#N,2.3%
CCOc1ccc(NC2=C(Cl)C(=O)N(c3ccccc3C)C2=O)cc1,i
CCCn1c2ccc(C)cc2c2n[nH]c(=S)nc21,2.6%

# An excerpt from above in order of molar mass, largest number first:
SMILES,Mtb growth
COc1cc(OC)cc(C(=O)N2CCC(C(=O)Nc3ccc(OCc4ccccc4)cc3)CC2)c1,i
O=C(CSc1nc2sc3c(c2c(=O)[nH]1)CCCC3)Nc1ccc(Cl)cc1,i
COc1ccc(S(=O)(=O)N(C)CC(=O)NCc2ccccc2Cl)cc1C,i
COc1cccc(Oc2ncnc3scc(-c4ccc(Cl)cc4)c23)c1,25.7%
COc1ccc(C(=O)Oc2ccc3ccccc3c2C=O)cc1OC,i
Cc1cc(Nc2ccc(N3CCOCC3)cc2)c2cccc(C)c2n1,i
Cc1[nH]c2c(C)cccc2c(=O)c1CN1CCCCCC1,0.3%
Cc1cc(Br)cc(C)c1OCCN(C)C,i
COC(=O)CCCC(=O)Nc1ccc(C)c(Cl)c1,20.1%
COCCNC(=S)Nc1ccc2nsnc2c1,i

# (continued)
SMILES,Mtb growth
Cc1cc(C)cc(CC2CC(=O)N(c3ccc(Cl)c(Cl)c3)C2=O)c1 (stereo not given),i
O=C(CN(Cc1ccc(Br)cc1)S(=O)(=O)c1ccccc1)Nc1ccc(Cl)cc1,1.4%
Cc1nnc(NC(=O)CSc2nnnn2Cc2ccccc2)s1,i
O=C(Cn1nc(C(F)(F)F)c2c1CCCC2)N1CCCc2ccccc21,7.8%
Cc1ccc(C(=O)Nc2ccccc2)c(Cl)c1,i
CCCCC1CCC(C(=O)NC2CCS(=O)(=O)C2)CC1 (stereo not given),i
CCn1c(Cc2ccccc2)nnc1Sc1ccc(C=O)o1,i
COC(=O)CN1C(=O)C(O)(c2c(C)[nH]c3ccccc23)c2ccccc21 (stereo not given),i
COc1ccc(N(CC(=O)Nc2ccc(S(=O)(=O)N3CCCCC3)cc2)S(=O)(=O)c2ccc(F)cc2)cc1,i
C=CCOc1ccc(C(=O)Nc2sc3c(c2C(=O)NCC)CCCC3)cc1,1.8%
COc1ccc(CCNC(=S)Nc2cc(C)cc(C)n2)cc1OC,i
Cc1ccc(S(=O)(=O)N2CCC(C(=O)N3CCOCC3)CC2)cc1,i
Cc1ccc(C)c(N2CC(C(=O)NCc3ccccc3)CC2=O)c1 (stereo not given),i
COc1ccc(NC(=O)c2ccc(C#N)cc2F)cc1Cl,1.4%
COC(=O)c1ccccc1NC(=O)Cn1c(CCC(=O)O)ccc1-c1ccccc1,i
O=C1CSC(=Nc2ccc(O)cc2)N1,i
CCOC(=O)c1cccc(NC(=O)COc2c(C)ccc(C)c2C)c1,13.8%
Nc1ncnc(N2CCCc3ccccc32)c1[N+](=O)[O-],i
CCOc1cccc(OCCCCN2CCN(C)CC2)c1,i
O=[N+]([O-])c1cccc(NC(=S)Nc2cccc(S(=O)(=O)N3CCOCC3)c2)c1,i
O=C(Oc1ccc(NC2=NS(=O)(=O)c3ccccc32)cc1)c1cccnc1,i
COCCNC(=O)c1c(NC(=O)c2sc3ccccc3c2Cl)sc2c1CCCC2,i
CCCOc1c(Br)cc(C2NC(=S)NC(C)=C2C(=O)Nc2ccccc2)cc1OC (stereo not given),i
COc1ccc([N+](=O)[O-])cc1NC(=O)c1ccc(C(C)(C)C)c(Br)c1,i
COc1cc(CNC23CC4CC(CC(C4)C2)C3)cc(Cl)c1OC,i
# Other compounds follow.
SMILES,Mtb growth
COc1ccc(CNCCC(Cc2ccccc2)c2ccco2)cc1 (stereo not given),11.9%
O=C(c1ccc(COc2ccc(Cl)cc2Cl)o1)N1CCCC1,i
COc1cccc(NC(=O)c2nc3ncccn3n2)c1,i
CCOc1cc(/C=C2/N=C(c3ccccc3)OC2=O)cc(Br)c1OC(=O)c1ccco1,0.2%
O=c1ccc2cc(S(=O)(=O)N3CCOCC3)ccc2o1,i
Cc1ccc(-c2nc3cc(NC(=O)COc4ccc([N+](=O)[O-])cc4)ccc3o2)cc1C,2.8%
CC(C)(C)c1ccc(C(=O)NCCN2CCCC2)cc1,i
CC(=O)Nc1ccc(NC(=O)COc2ccc(Br)cc2C)cc1,i
O=C(CNCc1ccccc1)NCC12CC3CC(CC(C3)C1)C2,i
O=C(Cc1cccs1)Nc1ccc(-c2nc3ccccc3s2)cc1,0.8%
Cc1nc(SCC(=O)Nc2ccc3ccccc3c2)c2c3c(sc2n1)CCCC3,6.2%
O=C(CS)Nc1ccc(C(=O)O)cc1,i
CCOc1ccc(NC(=S)NC(NC(=O)Cc2cccc3ccccc23)C(Cl)(Cl)Cl)cc1 (stereo not given),1.5%
Cc1nnc(SCC(=O)N2CCCC2)n1-c1ccc(F)cc1,i
CC(=O)c1ccc(NC(=O)c2ccc(NC(=O)C3COc4ccccc4O3)cc2)cc1 (stereo not given),49.5%
Cc1cccc(-c2cc(C(=O)Nc3sc(C)c(C)c3C(N)=O)c3ccccc3n2)c1,30.7%
COC(=O)C1=C(C)NC2=C(C(=O)CC(c3cccs3)C2)C1c1cccc(OC)c1 (stereo not given),i
CC(C)(C)c1ccc(OCCSc2nc(-c3ccccc3)cc(=O)[nH]2)cc1,i
COc1ccccc1NS(=O)(=O)c1ccc(S(N)(=O)=O)cc1,i
CC(c1ccc(F)cc1)n1c(-c2cccs2)n[nH]c1=S (stereo not given),0.6%
Cc1c(C(=O)OC2CCCCCC2)[nH]c2c1C(=O)CCC2,5.7%
O=C(CC(Cc1ccccc1)C(=O)Nc1nccs1)Nc1nccs1 (stereo not given),i
CCOc1ccccc1CN1CCC(C(=O)N2CCN(Cc3ccccc3)CC2)CC1,i
CSc1ccccc1NC(=O)C1CCCO1 (stereo not given),0.6%
CC(C)OC(=O)c1c(-c2ccc(Br)cc2)csc1NC(=O)/C=C/C(=O)O,i
# Following part:
SMILES,Mtb growth
O=C1C2C3C=CC(C4CC34)C2C(=O)N1CCO (stereo not given),i
c1ccc(COc2ccc(OCCCCN3CCCC3)cc2)cc1,i
O=C(NCCc1ccncc1)c1ccc(Cl)cc1Cl,i
Brc1cccc(OCCCCN2CCCC2)c1,i
COc1ccc(C(=O)c2ccccc2)cc1Br,i
O=C(CCc1ccccc1)Oc1ccc2c(=O)c(-c3ccc(Cl)cc3)coc2c1,i
CCC(=O)c1ccccc1OCCN1CCN(C)CC1,i
CC(C)c1ccc(-c2cc(C(=O)NCCN3CCOCC3)c3ccccc3n2)cc1,6.6%
Cc1c(NC(=O)C2CC(c3c(F)cccc3Cl)=NO2)c(=O)n(-c2ccccc2)n1C (stereo not given),i
COc1cc(NC(=O)COc2ccccc2Cl)cc(OC)c1OC,i
CCOC(=O)c1c(NC(=O)c2cc(OCC)c(OCC)c(OCC)c2)sc(C(=O)OC)c1C,i
Fc1ccc(NC(=S)N2CCN(C(c3ccccc3)c3ccccc3)CC2)c(F)c1,i
Cc1cc(NC(=O)c2ccc(NC(=O)C(C)C)cc2)no1,i
CCc1ccc(C2NC(=O)NC(C)=C2C(=O)OCC2CCCO2)cc1 (stereo not given),i
CC(=O)Nc1ccc(N2C(=O)c3cccc4cc(Br)cc(c34)C2=O)cc1,i

# Screens deposited in PubChem BioAssay by Southern Research Institute.
